MARV entry inh = qHTS for inhibitors of binding or entry into cells for Marburg Virus. Marburg virus pseudotyped entry inhibition, cell reporter; control for the full effect not named in the record; about a third of the inactives were read at about 46 µM. hit rate 1.8% among 300,000. Potency, µM (series often up to 37.8 µM), inactives show at the highest dose activity change, negative = inhibition, actives largely listed as inhibitors; active = well fitted inhibition curve with a large enough effect; inconclusive = small, poorly fitted or top-dose-only effect, or effect the other way; inactive = flat fitted curve, though single readings scatter; tested in HEK293 cells; about a fifth of its hits are not listed in these tables; also: % is scaled to controls: 0 for no effect and ±100 for the full control effect; luciferase read-out
LASV entry inh = qHTS for Inhibitors of binding or entry into cells for Lassa Virus; Potency, µM (series often up to 37.9 µM), for inactives: top-dose activity change, negative = inhibition, hits mostly inhibitors; AID 540256, 2011; hit rate 1.2% among 300,000; Lassa virus pseudotype entry inhibition, cell reporter; control for the full effect not named in the record; active means well fitted inhibition curve with a large enough effect; inconclusive means small, poorly fitted or top-dose-only effect, or effect the other way; inactive means flat fitted curve, though single readings scatter; tested in HEK293 cells; also: % is scaled to controls: 0 for no effect and ±100 for the full control effect; nearly all actives have a fitted effect of over 50% in size; luciferase read-out
NS1 inh = qHTS Assay for Inhibitors of Influenza NS1 Protein Function; S. cerevisiae slowed by influenza A NS1, growth recovery by OD600; Potency, µM (doses to about 46.1 µM), without a hit: top-dose activity, positive = more growth; hit rate 0.4% among 270,000; AID 2326, 2010; active means well fitted rising curve with a large enough effect; inconclusive means small, poorly fitted or top-dose-only effect; inactive means no such curve, though single readings can be large or run the other way; also: nearly all actives have a fitted effect of over 50% in size
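In this qHTS, NS1 from influenza A is expressed in budding yeast, where it slows growth. Cells are switched from glucose to 2% galactose medium (pH 6.0, -URA), treated with compound, and growth recovery is read at OD600.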
Cruzain noTriton = qHTS Assay for Promiscuous and Specific Inhibitors of Cruzain (without detergent). Potency, µM, for the others: max response, negative = inhibition, usual class: inhibitors. purified cruzain, Z-FR-AMC fluorescence, no detergent. hit rate 2.3% among 200,000;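 also: plate controls were enzyme without inhibitor for no effect and buffer without enzyme for full effect; nearly all actives have a fitted effect of over 40% in size; top concentration of the series not given in the record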
Target sequence (P25779 123-467 limits assumed): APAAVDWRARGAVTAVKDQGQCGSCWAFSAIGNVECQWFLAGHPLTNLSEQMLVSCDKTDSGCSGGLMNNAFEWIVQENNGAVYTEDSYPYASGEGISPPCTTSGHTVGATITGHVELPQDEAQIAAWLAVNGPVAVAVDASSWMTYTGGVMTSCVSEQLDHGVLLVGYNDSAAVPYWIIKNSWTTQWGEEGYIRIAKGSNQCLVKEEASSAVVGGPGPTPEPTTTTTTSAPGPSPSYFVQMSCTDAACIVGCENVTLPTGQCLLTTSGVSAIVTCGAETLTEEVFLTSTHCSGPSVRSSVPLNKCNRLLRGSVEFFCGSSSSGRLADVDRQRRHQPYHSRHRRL
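Detergent-free condition (0.00005% Triton X-100) in acetate buffer pH 5.5 with DTT. 1.5 nM enzyme and compound were pre-mixed 15 min, then 2 uM Z-FR-AMC substrate added; reaction progress from fluorescence change between first and third reads (60 s).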
SARS PLpro yeast = qHTS of Yeast-based Assay for SARS-CoV PLP; S. cerevisiae expressing SARS-CoV PLpro, growth rescue; control for the full effect not named in the record; Potency, µM (doses to about 32.9 µM), for inactives: at the top dose activity, positive = growth rescue; hit rate 0.19% among 330,000; AID 485353, 2010; active means well fitted rising curve with a large enough effect; inconclusive means small, poorly fitted or top-dose-only effect; inactive means no such curve, though single readings can be large or run the other way; also: 0% is about no effect; nearly all actives have a fitted effect of over 55% in size; growth read by luminescence after 48 h
RE007 growth inh = qHTS Assay for Inhibitors of the HIV-1 protein Vpr; hit rate 0.21% among 360,000; Potency, µM (titrated, usually from 92.2 µM), for inactives: at the top dose activity change, negative = less growth; AID 651644, 2012; S. pombe RE007 Vpr strain, BacTiter-Glo ATP luminescence, 24 h; control for the full effect not named in the record; active = well fitted falling curve with a large enough effect; inconclusive = small, poorly fitted or top-dose-only effect; inactive = no such curve, though single readings can be large or run the other way;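 also: % is scaled to controls: 0 for no effect and ±100 for the full control effect; nearly all actives have a fitted effect of over 50% in size; the assay follows cell death caused by Vpr and the record does not say whether a fall means rescue or toxicity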
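Fission yeast strain RE007, carrying one chromosomally integrated HIV-1 vpr copy, was seeded at OD 0.01 in PMG+AL medium with 23 nL pinned compound. After 24 h at 30 °C and 99% humidity, viability was read by BacTiter-Glo luminescence.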
Cruzain inh Det = qHTS Assay for Promiscuous and Specific Inhibitors of Cruzain (with detergent). Cruzipain (Trypanosoma cruzi), P25779. purified cruzain, Z-FR-AMC fluorescence, 0.01% Triton. Potency, µM, inactives show max response, negative = inhibition, most hits filed as inhibitors. hit rate 0.43% among 200,000;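 also: plate controls were neutral wells for no effect and buffer without enzyme for full effect; nearly all actives have a fitted effect of over 40% in size; top concentration of the series not given in the record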
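Z-FR-AMC hydrolysis (2 uM substrate) by cruzain (1.5 nM) monitored kinetically at ex 360/em 450 nm after 15 min room-temperature compound exposure; 0.01% Triton X-100, pH 5.5, 5 mM DTT.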
StopGo reporter = High Throughput Screening for Foot and Mouth Disease Virus Antivirals; human cells with a luciferase reporter of 2A StopGo recoding; control for the full effect not named in the record; Potency, µM (titrated, usually from 57.9 µM), without a hit: at the top dose signal change, negative = less light; hit rate 1.2% among 410,000; active = well fitted falling curve with a large enough effect; inconclusive = small, poorly fitted or top-dose-only effect; inactive = no such curve, though single readings can be large or run the other way; tested in HEK293T cells; also: % is scaled to controls: 0 for no effect and ±100 for the full control effect; nearly all actives have a fitted effect of over 45% in size; luciferase light after 4 h
The depositor's hits bear a star; u = inconclusive; x = not tested or not shown; & = joins results of further samples; [ ] = dose if it differs, or a comment. Unless noted, calls follow the shape of the dose curve; as a rule, active = well fitted curve in the direction sought with a large enough effect; inconclusive = small, poorly fitted or top-dose-only effect, or another doubt; inactive = no such curve, though single readings can be large; an effect the other way counts as inactive or inconclusive. Potency is read from the fitted curve at half-maximal effect.

The line under a structure holds: MARV entry inh | LASV entry inh | NS1 inh | Cruzain noTriton | SARS PLpro yeast | RE007 growth inh | Cruzain inh Det | StopGo reporter
Cn1ncc(=S)[nH]c1=S
  -13.5%[46.1 µM] | 0.0%[46.1 µM] | x | x | x | 19.2% | x | -3.9%
CCOc1cccc(C(=O)Nc2ccc(N3CCN(S(C)(=O)=O)CC3)cc2)c1
  -7.6% | 2.1% | -1.5% | 2.3% | 10.0% | -4.1% | 5.5% | -14.2%
COc1ccc(C2CC(=O)c3cc(-c4nc(-c5cccc([N+](=O)[O-])c5)cs4)c(=O)n(-c4ccc(OC)cc4)c3C2)cc1 (configuration not stated)
  -1.8%[46.1 µM] | 7.0%[46.1 µM] | x | 4.2% | x | x | -1.5% | -12.5%
CCCN(CCC)C(=O)CSc1nc2n[nH]c(C)c2c(=N)n1-c1ccc(OCC)cc1
  u | 11.2µM* | u | u | -3.5% | 25.1% | -25.9% | -24.6%
O=C1CCCN1CCCNc1ccc2nnc(CCC(=O)N3CCN(c4ccc(F)cc4)CC3)n2n1
  x | x | 9.2% | x | u | 0.7% | x | -5.1%
CCOc1ccccc1C(=O)NCC(=O)Nc1ccc(-c2ccccc2)cc1
  -27.9%[46.1 µM] | u | 4.8% | x | -8.8% | 14.0% | x | 4.6%
CC(=O)c1cccc(NC(=O)c2ccc(NC(=O)CC3SC(N4CCCCC4)=NC3=O)cc2)c1 (configuration not stated)
  -2.6% | -8.1% | -11.7% | x | 4.8% | 3.2% | x | -11.0%
Cc1ccc2sc(NC(=O)c3ccc4c(c3)OCCO4)nc2c1C
  x | 18.6%[46.1 µM] | x | -29.3% | x | x | -5.5% | -13.5%
CCOC(=O)/C(=C/C=C1\Sc2ccccc2N1CC)C(C)=O
  u | u | -0.9% | 0.9% | -16.7% | -7.6% | -17.3% | -14.2%
O=C(CCN=C1NS(=O)(=O)c2ccccc21)OCc1nnc(-c2ccccc2)o1
  5.5% | -1.5% | x | x | 2.4% | 2.9% | x | 7.8%
NC(=O)c1c(NC(=O)COC(=O)CSc2nnc(-c3ccc(Cl)cc3)o2)sc2c1CCC2
  -6.4%&-6.4% | -0.8% | -30.7% | -14.8% | -4.0% | 8.3% | -2.8% | 6.4%
CCCCN(CCCC)S(=O)(=O)c1ccc(C(=O)Nc2nnc(COC)o2)cc1
  u | u | -42.1% | u | u | -8.9% | -1.0% | -21.8%
O=C(CN1C=NS(=O)(=O)c2ccccc21)Nc1ccc(F)cc1
  x | 19.4%[46.1 µM] | x | 6.7% | x | x | 1.8% | 2.2%
Cc1ccc(NC(=O)COC(=O)/C=C/c2ccc(Br)o2)cc1S(=O)(=O)N(C)C
  x | x | 0.7% | x | -0.2% | -13.2% | x | 62.8%[activator]
N#Cc1nc(/C=C/c2ccc(F)cc2)oc1NC1CCCCC1
  11.6%[46.1 µM] | 3.6%[46.1 µM] | x | -7.3% | x | x | 8.7% | -1.2%
COCCN(C(=O)COC(=O)Cc1ccc(Cl)cc1Cl)c1c(N)n(Cc2ccccc2)c(=O)[nH]c1=O
  5.4% | 11.9% | x | x | -0.6% | -8.3% | x | -15.5%
COC(=O)C1=C(C)NC(=O)NC1c1ccc([N+](=O)[O-])o1 (configuration not stated)
  -15.9% | 7.3% | 18.9% | -6.2% | 2.7% | x | -6.9% | -23.6%
CCOc1ccc(-n2c(C)nnc2SCC(=O)N(CC)CC)cc1
  18.9% | -8.7% | 5.4% | 5.4% | -4.0% | -10.2% | 6.6% | 8.1%
COc1ccc(-c2nnc(SCc3ccc(C(=O)O)cc3)n2N)cc1
  3.2%[46.1 µM] | 2.5% | 4.7% | x | -1.1% | -1.1% | x | -21.7%
CCOc1ccc(OCCn2c(S(=O)(=O)O)nc3c(N)ncnc32)cc1
  x | x | 5.2% | x | 0.1% | -5.5% | x | -10.3%
CCOc1ccc(CNC(=O)Cc2ccc(NC(=O)N3CCCCc4ccccc43)cc2)cc1OC
  x | -17.9%[46.1 µM] | x | u | x | x | -4.6% | -16.6%
Cc1cnc(C(=O)NC2CCSc3ccccc32)cn1 (configuration not stated)
  x | x | 6.7% | x | 2.6% | -8.3% | x | 17.7%
CC(OC(=O)Cc1n[nH]c(=O)c2ccccc12)C(=O)Nc1ccc(F)cc1Cl (configuration not stated)
  -6.2% | u | x | x | -8.3% | 5.6% | x | -9.0%
COc1cc2c(c(NC(C)=O)c1)N(C(C)=O)CCC2
  u | -4.1% | x | x | x | -0.4% | x | 3.1%
CCN1c2ccc(S(=O)(=O)N3CCOCC3)cc2N(Cc2ccc(OC)cc2)C1C (configuration not stated)
  1.4%[46.1 µM] | 0.3%[46.1 µM] | x | x | -0.5% | 0.8% | x | 3.9%
COc1cccc(CNC(=O)C2CCN(Cc3cnn(-c4ccccc4)c3-n3cccc3)CC2)c1
  u | u | 7.2% | 4.0% | 0.3% | -4.2% | 2.6% | -24.2%
Cc1ccc(S(=O)(=O)N2CCC(=O)N(CCOCc3ccc(C(F)(F)F)cc3)CC2)cc1
  16.4µM* | u | 16.4% | u | -12.1% | 6.3% | -2.0%&-6.6% | u
Cc1cc(C)cc(NC(=O)NCc2c(-n3cccc3)sc3c2CCCC3)c1
  x | -11.1%[46.1 µM] | x | 15.2% | x | x | -2.8% | -6.8%
COc1ccc(C2CC(C(F)(F)F)n3nc(C(=O)N(C)Cc4cn(C)nc4C)c(Cl)c3N2)cc1 (configuration not stated)
  -12.6%&-12.6% | -1.5% | -5.9% | u | -0.3% | 2.8% | -1.2% | -18.1%
O=C(OCc1nnc(-c2ccccc2)o1)c1ccccc1
  1.7%[46.1 µM] | x | -5.7% | x | 1.7% | 2.9% | x | 63.9%[activator]
COc1ccc(Oc2cc(Cl)nc(N)n2)cc1
  x | x | -3.3% | x | 0.1% | -3.6% | x | -16.2%
COc1ccc(C2CC(=O)Nc3sc(=N)c4c(N)c(C#N)c(N)nc4c32)cc1OC (configuration not stated)
  -6.4% | -9.9% | -8.3% | 2.3% | -19.4% | -19.6% | -0.7% | u
COC(CNC(=O)c1ccc(CS(=O)(=O)c2c(Cl)cccc2Cl)o1)OC
  15.2%[46.1 µM] | 13.6%[46.1 µM] | 5.9% | x | -0.4% | 6.8% | x | 8.8%
Cc1cc(OCC(=O)N2CCc3ccccc3C2)c(C)cc1Br
  u | u | -68.2% | x | -20.7% | -1.9% | x | 4.9%
Cn1cccc1C(=O)NC(=O)COC(=O)c1ccc(S(C)(=O)=O)cc1
  u | 1.1% | x | x | -4.3% | 12.8% | x | 7.8%
CC(=O)c1cc(NC(=O)c2cccc(C(F)(F)F)c2)c(=O)oc1/C=C/N(C)C
  6.3% | -11.2% | 11.9% | 4.4% | 5.3% | -2.8% | 0.4% | -18.0%
Cc1ccccc1OCC(=O)NNC(=S)NC(=O)c1ccco1
  u | -18.6% | -218.2% | 9.4% | -24.1% | -6.9% | -7.3% | -13.7%
CC(=O)Nc1ccccc1N(CC(O)Cn1c2ccccc2c2ccccc21)S(=O)(=O)c1ccc(C)cc1 (configuration not stated)
  u | u | u | 25.6% | -4.4% | -14.1% | -1.5% | 0.0%
O=C(Nc1cccc2ncccc12)C12CC3CC(CC(C3)C1)C2
  -2.0% | -14.2% | -0.6% | -2.8% | -2.0% | 10.0% | -2.5% | -5.7%
Cc1nc2cc(NC(=O)c3ccco3)ccc2n1C
  x | x | u | x | -1.7% | -3.1% | x | 29.8%
Cc1cc(NC(=O)C(=O)c2cn(C)c3ccccc23)no1
  u | -16.9% | x | x | -0.5% | -22.0% | x | 25.1%
COc1ccc(C)cc1N(CC(=O)N1CCC(C)CC1)S(=O)(=O)c1ccc(C)cc1
  x | -18.4%[46.1 µM] | x | u | x | x | -6.0% | 55.3%[activator]
CC(Cc1ccccc1)=NNc1ccc([N+](=O)[O-])cc1[N+](=O)[O-]
  -2.8%[46.1 µM] | u | x | x | x | u | x | -17.8%
O=C(CSC1CC(=O)N(c2ccc(C(=O)O)cc2)C1=O)Nc1ccc2ccccc2c1 (configuration not stated)
  x | x | 4.7% | x | -1.0% | 7.5% | x | 6.5%
COc1cc(-c2nnc(SCC(=O)/C(C#N)=C(\C)N)o2)cc(OC)c1OC
  1.3% | -1.7% | -3.4% | 28.4% | -2.2% | -3.1% | 1.4% | -16.2%
CCOc1nc(-c2ccccc2)ccc1-c1noc(-c2cccs2)n1
  -1.1% | u | 11.2% | -9.1% | 6.0% | -0.5% | 2.9% | -15.2%
COc1ccccc1OCC(=O)Nc1cc(C(F)(F)F)ccc1-n1cncn1
  -6.8% | 23.6% | x | x | -0.8% | 1.7% | x | -17.0%
O=S(=O)(c1ccc2c(c1)OCCO2)N1CCC(c2nc3ccccc3[nH]2)CC1
  u | -4.4% | 3.1% | 5.4% | 5.3% | 1.3% | -0.8% | u
CCNC(=O)C12CCC(C)(c3nc4cc(C)c(C)cc4nc31)C2(C)C (configuration not stated)
  u | x | -5.3% | x | -0.6% | -12.1% | x | -14.2%
NC(=O)Cc1ccc(C(=O)CSc2nnc(-c3ccncc3)n2C2CC2)s1
  8.0%[46.1 µM] | 2.9%[46.1 µM] | x | x | 0.9% | -4.9% | x | 8.8%
CC(=O)c1ccc(NC(=O)Cn2c(=O)oc3ccccc32)cc1
  25.4%[46.1 µM] | 1.6%[46.1 µM] | -5.3% | x | 5.3% | 4.2% | x | 1.1%
c1ccc(-c2nnc3n2-c2ccccc2SC3)cc1
  6.8%[46.1 µM] | 5.1% | -6.5% | x | -2.2% | -18.6% | x | -19.4%
